Screens from PubChem BioAssay.
YB-1 expr inh – inhibitors of YB-1 gene expression, primary screen, cell-based, fluorescence. delta delta Cp (YB-1 minus CDIP) (concentration not given with the values). U2OS, qRT-PCR YB-1 vs CDIP delta delta Cp, 16 h; active compounds read high; zero = DMSO, each unit about twofold. 30,000 compounds, 0.37% hits;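 active means delta delta Cp rounded down to an integer at or above 3, about 3 SD of DMSO wells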;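 further: higher means less YB-1 transcript or more CDIP transcript relative to DMSO; stock transfer was 100 nL into about 100 µL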
Shh pathway inh – Hedgehog pathway signaling inhibitors, primary screen, luminescence, Shh-LIGHT2 cells, Gli-luciferase | Shh-LIGHT2 Gli-luciferase reporter, 30 h | inhibition, % (test concentration not listed) | 22,000 compounds, 2.1% hits;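 active means replicate mean of 65% or more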;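 further: pathway switched on by Shh-conditioned medium diluted 1 in 25 in low serum; 100 nL library stock added to about 40 µL; 0% = median of neutral wells and 100% = positive control level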
MITF inh – inhibitors of MITF, primary screen, MITF inhibitor project, cell-based, luminescence; TRPM1 promoter luciferase, 24 h; inhibition, % (test concentration not listed); 37,000 compounds, 0.28% hits; AID 2240, 2010;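 active means most replicates at 85% or more, or half of them and the mean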;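 further: human melanocyte line stably carrying TRPM1 promoter luciferase reporter; 0% = vehicle wells and 100% = a positive control; the first replicate is given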
PD-1 reverse act – activators reversing PD-1 mediated T-cell inhibition, primary screen, luminescence, primary human CD4 T cells, PD-L1 beads | 29,000 tested, under 10 active | CellTiter-Glo 96 h | AID 2316, 2010 | activation, % (concentration not given with the values);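 active means replicate mean of 50% or more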;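 further: 0% = median vehicle wells and 100% = positive control; 100 nL library stock added to about 50 µL; numbers are from one replicate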
* marks the source's active call; other numbers are inactive results; / = not tested or not shown. These rows are one share of the data, so the mix of outcomes need not match the whole.

The line under a structure holds: YB-1 expr inh | Shh pathway inh | MITF inh | PD-1 reverse act
C[C@@H]1CN([C@H](C)CO)C(=O)Cc2cc(NC(=O)Nc3ccc(C(F)(F)F)cc3)ccc2O[C@@H]1CN(C)S(C)(=O)=O
    -0.24 | -9 | -25 | -1.9
CCn1c(SCC(=O)Nc2c(Cl)cc(Cl)cc2Cl)nnc1-c1ccc(OC)cc1
    / | / | 2 | -1.3
CC(C)NC(=O)N(C)C[C@H]1Oc2ccc(NC(=O)CCC(F)(F)F)cc2CC(=O)N([C@@H](C)CO)C[C@H]1C
    -0.17 | -30 | -8 | 0.7
CNS(=O)(=O)c1cc(-c2nnc(Nc3ccc4c(c3)OCO4)c3ccccc23)ccc1C
    -0.36 | 23 | -23 | 0.2
C[C@@H]1CN([C@@H](C)CO)C(=O)c2cc(NC(=O)C3CC3)ccc2O[C@@H]1CN(C)Cc1ccc(C(=O)O)cc1
    -0.064 | / | -6 | 0.8
C[C@@H]1CN([C@H](C)CO)C(=O)c2cccc(NS(=O)(=O)c3cn(C)cn3)c2O[C@H]1CN(C)Cc1ccc(-c2ccccc2)cc1
    -0.1 | -44 | -16 | 0.0
CCn1ncc(NC(=S)NCc2ccco2)c1C(N)=O
    / | / | -12 | 0.3
COC(=O)COc1cccc(NC(=O)c2cccs2)c1
    / | / | -8 | 1.1
C[C@@H]1CN([C@@H](C)CO)C(=O)c2cccc(NC(=O)Nc3ccc4c(c3)OCO4)c2O[C@@H]1CN(C)Cc1ccc2c(c1)OCO2
    0.08 | -3 | -20 | -0.7
COc1ccc(NC(=O)Nc2cccc3c2O[C@H](CN(C)C(=O)Nc2ccc4c(c2)OCO4)[C@H](C)CN([C@@H](C)CO)C3=O)cc1
    -0.24 | 8 | -6 | /
COc1ccc(NC(=O)N(C)C[C@@H]2Oc3ccc(NC(=O)NC(C)C)cc3CC(=O)N([C@H](C)CO)C[C@@H]2C)cc1
    -0.62 | -14 | 7 | 2.7
CCOC(=O)CSc1nc2c(c(=O)n1-c1ccccc1OC)C1(CCCC1)Cc1ccccc1-2
    / | / | 11 | 1.0
COc1ccc(NC(=O)Nc2ccc3c(c2)CC(=O)N([C@@H](C)CO)C[C@H](C)[C@H](CN(C)C(=O)Nc2ccccc2)O3)cc1
    -0.23 | / | -13 | /
C[C@@H]1CCCCO[C@@H](CN(C)C(=O)Nc2ccc3c(c2)OCO3)[C@@H](C)CN([C@H](C)CO)C(=O)c2cc(NC(=O)C3CCCCC3)ccc2O1
    -0.073 | / | 4 | 0.3
COc1c(C)c(O)c(C)c(O)c1C(=O)CCc1ccccc1
    0.089 | -23 | 5 | -1.3
O=C(Cn1cnc2scc(-c3ccc4ccccc4c3)c2c1=O)Nc1cccc(Cl)c1Cl
    / | / | 52 | -2.5
C[C@H]1CN([C@@H](C)CO)C(=O)Cc2cc(NS(=O)(=O)c3ccc(Cl)cc3)ccc2O[C@@H]1CN(C)S(=O)(=O)c1cccs1
    0.15 | 20 | 6 | /
C[C@@H]1CN([C@@H](C)CO)C(=O)c2cc(NC(=O)Cn3cnnn3)ccc2O[C@@H]1CN(C)C(=O)NC1CCCCC1
    -0.23 | -18 | -4 | 1.1
Cc1ccc(S(=O)(=O)c2c(C)nn(C(C)(C)C)c2OC(=O)c2ccccc2C(F)(F)F)cc1
    / | / | 7 | -2.8
Cc1nc2cc(NC(=O)NCc3ccco3)ccc2o1
    / | / | -55 | 0.2
C[C@H]1CN([C@@H](C)CO)C(=O)c2cccc(NC(=O)c3ccc(-c4nccs4)cc3)c2O[C@H]1CN(C)S(=O)(=O)c1cn(C)cn1
    -0.014 | -8 | -19 | 0.5
C[C@H]1CN([C@@H](C)CO)C(=O)Cc2cc(NS(=O)(=O)c3cn(C)cn3)ccc2O[C@H]1CN(C)C
    0.16 | -11 | -9 | -0.4
CCn1c(SCC(=O)Nc2cccc(C(F)(F)F)c2)nnc1-c1c[nH]c2ccccc12
    / | / | 3 | 0.0
O=c1cc(-c2ccccc2)oc2cc(Cl)cc(Cl)c12
    -0.37 | -43 | -3 | 0.2
O=C(O)COc1cccc(-c2nc3ccccc3s2)c1
    / | / | 105* | -0.1
CC(=O)c1ccc(NC(=O)CSc2nnc(-c3cccs3)n2-c2ccccc2)cc1
    / | / | 0 | -4.5
COC(=O)c1ccccc1NC(=O)CSc1nnc(-c2ccc(Cl)cc2)o1
    / | / | -30 | -1.4
CN1CCN(c2ccccc2NC(=O)COc2ccccc2)CC1
    / | / | -4 | -1.3
Cc1ccc(C(=O)Nc2ccccc2C(=O)N2CCCC2)cc1S(=O)(=O)N1CCOCC1
    / | / | -14 | -0.1
C[C@@H]1CCCCO[C@H](CN(C)C(=O)Nc2ccccc2)[C@@H](C)CN([C@H](C)CO)C(=O)c2cc(NS(=O)(=O)c3ccc(Cl)cc3)ccc2O1
    0.12 | 17 | 34 | -2.0
CC(C)NC(=O)N(C)C[C@@H]1Oc2ccc(NC(=O)Nc3ccc(C(F)(F)F)cc3)cc2C(=O)N([C@H](C)CO)C[C@@H]1C
    0.31 | / | 4 | -1.0
Cc1onc(-c2ccccc2Cl)c1C(=O)N(Cc1nc(-c2ccccc2)no1)C1CCCCC1
    / | / | 35 | -2.9
C[C@@H]1CN([C@H](C)CO)C(=O)Cc2cc(NS(=O)(=O)c3ccccc3)ccc2O[C@H]1CN(C)Cc1ccc(C(F)(F)F)cc1
    -0.13 | 12 | -10 | -2.8
C[C@@H]1CN([C@@H](C)CO)C(=O)c2cccc(NC(=O)c3cnccn3)c2O[C@@H]1CN(C)S(=O)(=O)c1ccc(F)cc1
    -0.3 | 8 | -4 | 0.3
C[C@H](CO)N1C[C@H](C)[C@@H](CN(C)C(=O)Nc2ccc(F)cc2)Oc2c(NC(=O)c3ccc(-c4nccs4)cc3)cccc2C1=O
    0.69 | -19 | -8 | -1.7
C[C@H](CO)N1C[C@H](C)[C@@H](CN(C)C(=O)Nc2ccc(F)cc2)Oc2c(NS(=O)(=O)c3cccs3)cccc2C1=O
    -0.15 | -29 | 1 | 0.9
Cc1noc(C)c1NC(=O)N(C)C[C@@H]1Oc2ccc(NC(=O)C3CC3)cc2C(=O)N([C@H](C)CO)C[C@@H]1C
    -0.13 | -2 | -5 | 0.1
C[C@H]1CN([C@@H](C)CO)C(=O)c2cccc(NC(=O)NC3CCCCC3)c2O[C@@H]1CN(C)Cc1ccc(Cl)c(Cl)c1
    -0.36 | 9 | 48 | /
C[C@@H]1CN([C@H](C)CO)C(=O)c2cccc(NC(=O)C3CCCCC3)c2O[C@H]1CN(C)S(=O)(=O)c1cccs1
    -0.026 | -3 | 5 | 2.0
C[C@@H]1CCCCO[C@@H](CN(C)Cc2ccc(C(=O)O)cc2)[C@@H](C)CN([C@H](C)CO)C(=O)c2cc(NS(=O)(=O)c3ccc(Cl)cc3)ccc2O1
    -0.14 | -1 | -1 | /

Copied from the list.
PD-1 reverse act, C[C@H](CO)N1C[C@H](C)[C@@H](CN(C)C(=O)Nc2ccc(F)cc2)Oc2c(NC(=O)c3ccc(-c4nccs4)cc3)cccc2C1=O stands at -1.7
YB-1 expr inh, C[C@H]1CN([C@@H](C)CO)C(=O)c2cccc(NC(=O)NC3CCCCC3)c2O[C@@H]1CN(C)Cc1ccc(Cl)c(Cl)c1 stands at -0.36

The listing continues.
The line under a structure holds: YB-1 expr inh | Shh pathway inh | MITF inh | PD-1 reverse act
Cc1cc(C(=O)Nc2cccc3c2O[C@H](CN(C)C(=O)Nc2ccc(C(F)(F)F)cc2)[C@@H](C)CN([C@@H](C)CO)C3=O)n(C)n1
    -0.56 | -51 | -5 | 0.1
O=[N+]([O-])c1cccc(S(=O)(=O)NCCOc2cccc3cccnc23)c1
    / | / | 11 | -1.0
C[C@H]1CN([C@@H](C)CO)C(=O)Cc2cc(NC(=O)Nc3ccc(F)cc3)ccc2O[C@H]1CN(C)Cc1ccccc1
    0.016 | / | -5 | 0.3
C[C@H]1CN([C@@H](C)CO)C(=O)c2cccc(NC(=O)Nc3ccc(F)cc3)c2O[C@@H]1CN(C)Cc1ccncc1
    -0.2 | -23 | -1 | /
C[C@@H]1CN([C@H](C)CO)C(=O)c2cccc(NC(=O)c3ccc(-c4nccs4)cc3)c2O[C@@H]1CN(C)C
    -0.18 | -26 | -26 | -0.2
CSc1n[nH]c(NC(=O)c2ccccc2Cl)c1S(=O)(=O)c1ccc(Cl)cc1
    -0.59 | 13 | 26 | -1.3
CNC[C@@H]1Oc2ccc(NS(=O)(=O)c3ccccc3)cc2CC(=O)N([C@H](C)CO)C[C@H]1C
    -0.15 | 6 | -7 | 1.0
C[C@@H]1CN([C@@H](C)CO)C(=O)Cc2cc(NS(=O)(=O)c3cn(C)cn3)ccc2O[C@@H]1CN(C)C(=O)Nc1ccc(F)cc1
    -0.058 | 8 | -21 | 2.6
CNc1ccc(S(=O)(=O)c2ccc(NC)cc2)cc1
    -0.56 | / | 17 | 1.3
COc1ccc(NC(=O)CC(=O)Nc2ccc(OC)cc2)cc1
    -0.28 | -14 | 11 | 0.4
COc1cccc(C(=O)NCCN=C2NS(=O)(=O)c3ccccc32)c1
    / | / | -12 | -0.7
C[C@@H]1CN([C@H](C)CO)C(=O)c2cccc(NC(=O)Nc3cccc4ccccc34)c2O[C@H]1CN(C)S(=O)(=O)c1ccccc1
    -0.098 | 17 | 0 | /
C[C@@H]1CN([C@@H](C)CO)C(=O)c2cc(NC(=O)Nc3ccc(C(F)(F)F)cc3)ccc2O[C@@H]1CN(C)Cc1ccccc1
    -0.29 | 33 | 30 | -1.9
COc1ccc(S(=O)(=O)Nc2cccc3c2O[C@@H](CN(C)CC2CCCCC2)[C@@H](C)CN([C@@H](C)CO)C3=O)cc1
    -0.16 | -24 | 1 | /
C[C@H](CO)N1C[C@H](C)[C@@H](CN(C)C(=O)Nc2ccc(F)cc2)Oc2c(NC(=O)Nc3ccc(F)cc3)cccc2C1=O
    -0.4 | -16 | -8 | 0.2
O=C(C1CC1(c1ccccc1)c1ccccc1)N1CCCCC1 (stereo not drawn)
    0.093 | 2 | 7 | -1.1
Cc1ccc(S(=O)(=O)Nc2ccc3c(c2)C(=O)N([C@H](C)CO)C[C@H](C)[C@H](CN(C)C)O3)cc1
    0.1 | 16 | 4 | 1.6
C[C@@H]1CCCCO[C@H](CN(C)C(=O)Nc2ccccc2)[C@@H](C)CN([C@H](C)CO)C(=O)c2cc(NS(=O)(=O)c3cccs3)ccc2O1
    0.15 | -8 | 13 | 0.5
Cc1noc(C)c1S(=O)(=O)Nc1cccc2c1O[C@@H](CN(C)CC1CC1)[C@@H](C)CN([C@@H](C)CO)C2=O
    0.16 | -54 | 5 | /
CNC[C@H]1Oc2c(NS(=O)(=O)c3ccc(C)cc3)cccc2C(=O)N([C@H](C)CO)C[C@H]1C
    -0.53 | 1 | -7 | /

A portion from further up, as a working copy:
The line under a structure holds: YB-1 expr inh | Shh pathway inh | MITF inh | PD-1 reverse act
COc1cccc(C(=O)NCCN=C2NS(=O)(=O)c3ccccc32)c1
    / | / | -12 | -0.7
C[C@@H]1CN([C@H](C)CO)C(=O)c2cccc(NC(=O)Nc3cccc4ccccc34)c2O[C@H]1CN(C)S(=O)(=O)c1ccccc1
    -0.098 | 17 | 0 | /
C[C@@H]1CN([C@@H](C)CO)C(=O)c2cc(NC(=O)Nc3ccc(C(F)(F)F)cc3)ccc2O[C@@H]1CN(C)Cc1ccccc1
    -0.29 | 33 | 30 | -1.9

More compounds follow:
The line under a structure holds: YB-1 expr inh | Shh pathway inh | MITF inh | PD-1 reverse act
C[C@@H]1CN([C@@H](C)CO)C(=O)c2cccc(NC(=O)Nc3ccc4c(c3)OCO4)c2O[C@H]1CN(C)S(=O)(=O)c1ccc(Cl)cc1
    0.0063 | -29 | 3 | /
CCOC(=O)c1c(NC(=O)CSc2ncn[nH]2)sc2c1CCCC2
    / | / | 22 | -2.3
COc1ccc(-c2cc(C)nc(SCC(=O)Nc3ccccc3F)n2)cc1
    / | / | 8 | -4.0
Cc1ccc(S(=O)(=O)Nc2ccc3c(c2)C(=O)N([C@H](C)CO)C[C@H](C)[C@H](CN(C)C(=O)CCC(F)(F)F)OCCCC[C@@H](C)O3)cc1
    0.083 | -32 | -13 | -0.4
O=C(NCc1ccco1)C1CC(c2ccc(Cl)c(Cl)c2)=NO1 (stereo not drawn)
    / | / | 4 | -1.7
COc1ccc(CN(C)C[C@H]2Oc3ccc(NC(=O)Nc4cccc5ccccc45)cc3CC(=O)N([C@@H](C)CO)C[C@H]2C)cc1
    0.26 | -1 | 4 | /
Cc1noc(C)c1NC(=O)N(C)C[C@H]1Oc2c(NC(=O)c3nc4ccccc4s3)cccc2C(=O)N([C@H](C)CO)C[C@@H]1C
    0.41 | 6 | -7 | 1.8
C[C@@H]1CN([C@@H](C)CO)C(=O)c2cccc(NS(=O)(=O)c3cccs3)c2O[C@@H]1CN(C)S(=O)(=O)c1ccc(F)cc1
    0.13 | -8 | -9 | -2.8
O=C(c1ccccc1)c1cc[n+](Cc2ccccn2)cc1
    -1 | / | 8 | 0.4
C[C@@H]1CN([C@@H](C)CO)C(=O)c2cc(NC(=O)Nc3cccc4ccccc34)ccc2O[C@H]1CN(C)C(=O)Nc1cccc2ccccc12
    0.0023 | / | 8 | -1.8
C[C@H]1CN([C@@H](C)CO)C(=O)c2cc(NC(=O)NC3CCCCC3)ccc2O[C@@H]1CN(C)Cc1ccccc1
    0.18 | 13 | 0 | 0.5
